gsp antagonist = qHTS for Antagonists of gsp, the Etiologic Mutation Responsible for Fibrous Dysplasia/McCune-Albright Syndrome: qHTS. gsp-mutant cells, cAMP HTRF, 30 min; control for the full effect not named in the record. hit rate 0.4% among 340,000. AID 624288, 2012. Potency, µM (doses to about 76.9 µM), for inactives: top-dose activity change, negative = inhibition, actives largely listed as inhibitors; active = falling curve of any shape with a large fitted effect; inconclusive = falling curve, mostly with a smaller effect; inactive = flat or rising curve; cell line not stated here;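 also: intracellular cAMP measured with PDE inhibitor Ro 20-1724 present during compound exposure; potency is read from the fitted curve at half-maximal effect; % is scaled to controls: 0 for no effect and ±100 for the full control effect; nearly all actives have a fitted effect of over 65% in size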
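G418-selected cells were plated in DMEM/10% FBS for 16-24 h at 37C, then treated with compounds plus the PDE inhibitor […] (300 uM solution added) for 30 min at 37C. Intracellular cAMP was measured by HTRF after 30 min lysis at room temperature.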
ClpP mod = qHTS Assay for Activators of ClpP | purified B. subtilis ClpP, FRET peptide cleavage, 20 min | Potency, µM (series often up to 57.5 µM), without a hit: at the top dose activity change, negative = active | hit rate 1.9% among 340,000; active = well fitted falling curve with a large enough effect; inconclusive = small, poorly fitted or top-dose-only effect; inactive = no such curve, though single readings can be large or run the other way; also: potency is read from the fitted curve at half-maximal effect; the source files actives as falling curves though it sought activators and does not explain the sign; nearly all actives have a fitted effect of over 65% in size; many hits overshoot -100%
Target sequence (P80244 whole entry, looked up): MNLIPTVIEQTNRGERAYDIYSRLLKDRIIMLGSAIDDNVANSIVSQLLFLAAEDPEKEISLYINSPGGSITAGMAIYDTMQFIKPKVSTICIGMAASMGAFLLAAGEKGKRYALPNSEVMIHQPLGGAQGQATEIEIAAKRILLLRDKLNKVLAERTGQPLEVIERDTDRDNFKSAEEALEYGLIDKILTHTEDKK
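ClpP 10 microg/mL final, pH 8 Tris/KCl buffer with BSA, glycerol, Tween-20; compound pinned in; FRET-FV substrate; RT 20 min; Ex320/Em430; ΔFRET vs ADEP 5.8 microM, DMSO, no enzyme.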
Menin-MLL FL inh = qHTS Assay for Inhibitors Targeting the Menin-MLL Interaction in MLL Related Leukemias: Competition With Fluorescein Labeled MLL-derived Peptide; 290,000 tested, under 10 active; Fluorescence polarization, fluorescein-MLL peptide displacement from menin; FP activity change, % at 61.4 µM; inconclusive = falling polarisation curve, or a change in total fluorescence; inactive = total fluorescence flat and polarisation flat or rising; no compound was filed as active; the % refers to the polarisation; negative = inhibition;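 also: % of control where 0% means no effect; inhibitors lower the polarisation; unlabelled MLL peptide was the positive control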
D2 agonist = Beta-Arrestin HTS for Positive Allosteric Modulators of the Human D2 Dopamine Receptor: Agonists. hit rate 0.084% among 360,000. DiscoveRx PathHunter D2 beta-arrestin, luminescence, 90 min; 100% = 57 uM dopamine signal. activation, % (test concentration not listed). D(2) dopamine receptor (Homo sapiens), P14416; in the data active = activation above about 40%; inconclusive = about 15% to 40%; inactive = below about 15%; also: compound concentration not given in the record; the text of the record calls up to 30% inactive
Target sequence (P14416 whole entry, looked up): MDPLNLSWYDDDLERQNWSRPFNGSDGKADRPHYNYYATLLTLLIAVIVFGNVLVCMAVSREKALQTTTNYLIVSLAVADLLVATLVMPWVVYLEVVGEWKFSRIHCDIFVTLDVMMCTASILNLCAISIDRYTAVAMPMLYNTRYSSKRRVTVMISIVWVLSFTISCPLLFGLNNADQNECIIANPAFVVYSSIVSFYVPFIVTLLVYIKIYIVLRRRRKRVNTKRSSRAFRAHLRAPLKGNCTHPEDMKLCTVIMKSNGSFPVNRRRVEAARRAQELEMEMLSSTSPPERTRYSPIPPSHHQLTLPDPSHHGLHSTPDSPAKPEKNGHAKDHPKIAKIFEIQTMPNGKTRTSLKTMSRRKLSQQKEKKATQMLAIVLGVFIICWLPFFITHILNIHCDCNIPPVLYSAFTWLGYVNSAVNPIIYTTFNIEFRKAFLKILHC
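DiscoveRx PathHunter D2 beta-arrestin cells (2,100/well) attached overnight, then compound-stimulated 90 min at 37 C in HBSS/10 mM HEPES/0.1% Tween-20 buffer; beta-galactosidase complementation read by luminescence after 1 h at ambient temperature. Dopamine 57 uM final (EC100) as control.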
Sfp PPTase inh = qHTS Assay for Inhibitors of Bacillus subtilis Sfp phosphopantetheinyl transferase (PPTase) | hit rate 3.5% among 310,000 | AID 1490, 2009 | Potency, µM, for inactives: max response, negative = inhibition, actives largely listed as inhibitors | 4'-phosphopantetheinyl transferase ffp (Bacillus subtilis), Q9F4F7 | Biochemical Sfp PPTase activity, qHTS; active = well fitted inhibition curve with a large enough effect; inconclusive = small, poorly fitted or top-dose-only effect, or another doubt; inactive = no such curve, though single readings can be large or run the other way;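 also: the enzyme is Sfp with the accession as filed and its product quenches rhodamine fluorescence; potency is read from the fitted curve at half-maximal effect; 0% = enzyme reaction without inhibitor and -100% = no enzyme wells; top concentration of the series not given in the record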
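With Hepes-Na pH 7.6 buffer containing 10 mM MgCl2, Sfp (15 nM) modified BHQ-2-YbbR (12.5 uM) using rhodamine-CoA (5 uM). Two reads 30 minutes apart at 525/598 nm yielded each well's rate.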
gsp agonist = qHTS for Agonist of gsp, the Etiologic Mutation Responsible for Fibrous Dysplasia/McCune-Albright Syndrome: qHTS. gsp mutant cells, cAMP HTRF, 30 min; control for the full effect not named in the record. Potency, µM (highest dose often 76.9 µM), without a hit: at the top dose activation (cAMP increase), most hits filed as activators. hit rate 0.13% among 340,000; active = well fitted activation curve with a large enough effect; inconclusive = small, poorly fitted or top-dose-only effect, or another doubt; inactive = no such curve, though single readings can be large or run the other way; cell line not stated here;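 also: phosphodiesterase inhibitor Ro 20-1724 added with compounds to block cAMP breakdown; potency is read from the fitted curve at half-maximal effect; nearly all actives have a fitted effect of over 60% in size; about a fifth of the inactives were tested at one dose only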
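Cells stably selected in G418 were plated at 2000/well, grown 16-24 hr, then given compounds in DMSO with the PDE inhibitor […] (300 uM solution added) for 30 min at 37C; cAMP was read by HTRF.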
PINK1 modulator = A Quantitative High throughput Screen to Identify Chemical Modulators of PINK1 Expression; PINK1 immunofluorescence, high-content cytometry, 24 h; hit rate 0.2% among 410,000; AID 624263, 2012; Potency, µM (doses to about 76.6 µM), for the others: at the highest dose activation (PINK1 increase), usual class: activators; active = well fitted activation curve with a large enough effect; inconclusive = small, poorly fitted or top-dose-only effect; inactive = flat fitted curve, though single readings scatter; cell line not stated here;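 also: potency is read from the fitted curve at half-maximal effect; % of control where 0% means no effect; nearly all actives have a fitted effect of over 65% in size; a mitochondrial uncoupler was the plate control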
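A stable cell line was treated with compounds at 5 concentrations for 24 hours, with CCCP as control. PINK1 levels and mitochondrial localization were measured by immunofluorescence with mitochondrial, cell and nuclear markers after fixation, read by laser-scanning cytometry.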
* = called active by the depositor; ? = inconclusive; . = no result given; & = joins results of further samples; [ ] = dose if it differs, or a comment.

SMILES	gsp antagonist	ClpP mod	Menin-MLL FL inh	D2 agonist	Sfp PPTase inh	gsp agonist	PINK1 modulator
COc1ccccc1C(C#N)c1cccc(Cl)n1 (stereo unspecified)	5%	-0.9%	2.9	-2.1	0%	?	3.0%
CC(=O)n1cc(CO)c2ccccc21	3%	-0.2%	1.6	-6.0	23%	.	0.0%
CC(C)c1ccccc1OCCCN1CCCC1	10%	-1.9%	2.3	4.5	-3%	-33%[inhibitor]	-0.2%
COCCCN(C(=S)NC(=O)c1ccc(Br)cc1)c1c(N)n(Cc2ccccc2)c(=O)[nH]c1=O	-5%	-14%	0.1	-5.8	16%	8%[15.4 µM]	1.7%
Cn1c(CCNC(=O)c2ccccc2)nc2ccccc21	-2%	0.9%	-2.6	-4.5	-7%	-2%	.
COc1cccc(-c2ccc3nnc(SCC(=O)N4CCCC4)n3n2)c1	1%	.	.	-4.4	.	26%[15.4 µM]	1.3%
O=C(c1cccc(-n2cccc2)c1)N1CCN(S(=O)(=O)c2ccc(F)cc2)CC1	?	0.6%	7.3	-6.7	-7%	4%	-0.2%
CSCCCN1CCCC(CO)(Cc2ccccc2F)C1 (stereo unspecified)	-6%	-2.4%	-0.6	-3.1	0%	9%	0.0%
O=C(NC1CCCC1)c1ccccc1-c1nc2ccccc2[nH]1	-2%	-15%	-0.4	-0.7	18%	13%	-3.2%
Cc1nc2sc(C(c3ccco3)N3CCN(c4ccc(F)cc4)CC3)c(O)n2n1 (stereo unspecified)	-5%	0.0%	-0.1	-2.0	45µM*	-17%	1.1%
COc1ccc(C(=S)N2CCN(c3ccccc3Cl)CC2)cc1OC	-14%	-0.1%	3.1	0.6	35µM*	-57%[inhibitor]	7.9%
O=C(OCC(=O)N1CCc2ccccc21)C1CCCN1S(=O)(=O)c1ccc(Cl)cc1 (stereo unspecified)	-19%	-1.7%	.	-4.2	.	-5%	-0.3%
O=Cc1cccn1-c1ccc2ccccc2c1	6%	0.1%	0.2	-3.7	-11%	4%	5.4%
O=C(CC12CC3CC(CC(C3)C1)C2)NCC(=O)OCc1cc(=O)oc2ccc3ccccc3c12	-8%	.	6.2	-1.6	-3%	?	2.2%
Cn1c(=O)c2c(-c3ccccc3)n(-c3ccc(N)cc3)cc2n(C)c1=O	.	-5.7%	.	5.7	.	.	2.9%
COc1cccc2c1CCC1CC(=O)CC[C@@]21C (stereo partly specified)	.	.	2.3	.	1%	.	-0.1%
CC(C)n1c(CSCc2ccc(Cl)cc2Cl)n[nH]c1=S	-23%	.	-2.9	-20	7%	-14%[15.4 µM]	1.9%
O=S(=O)(Nc1ccc(C(O)(C(F)(F)F)C(F)(F)F)cc1)c1ccc(Cl)c2nonc12	.	0.0%	.	?	.	.	0.8%
CC1=C(c2ccc(F)cc2)[N+](=O)C(C)(C)N1[O-]	6%	.	12	8.9	-20%	9%[15.4 µM]	1.0%
O=C(O)/C=C/C(=O)NCCNc1ncc(C(F)(F)F)cc1Cl	6%	.	-4.0	0.6	?	-22%	1.0%
COc1cccc(C(=O)NCCS(=O)(=O)NCc2ccccn2)c1	-1%	-5.8%	.	-1.0	.	-17%	0.7%
CCOC(=O)N1CCN(C(=O)C2CCC(CNS(=O)(=O)c3ccc(Cl)cc3)CC2)CC1 (stereo unspecified)	9%	-1.0%	0.9	-0.8	22%	6%	4.3%
Cc1cccnc1C(NC(=O)C1CCN(Cc2ccccc2)CC1)c1ccc(F)cc1 (stereo unspecified)	.	0.5%	.	3.9	.	.	1.0%
CCOc1ccc(N(C(=O)/C=C/C(=O)Nc2cc(C)on2)C(C(=O)NC2CCCC2)c2ccccc2C)cc1 (stereo unspecified)	-5%	0.0%	3.5	-0.5	15%	4%	1.9%
C/C(=N/NC(=O)c1ccccc1O)c1ccc(N2C(=O)C3CCCCC3C2=O)cc1 (stereo unspecified)	-12%	-0.5%	-2.4	-5.1	2%	2%	3.5%

The list goes on:
SMILES	gsp antagonist	ClpP mod	Menin-MLL FL inh	D2 agonist	Sfp PPTase inh	gsp agonist	PINK1 modulator
O=C1CCN(Cc2ccccc2)CCN1[C@H](CO)Cc1ccccc1	6%	0.2%&0.2%&1.4%	0.2	-0.8	9%	.	3.5%
COc1ccc(C(=O)N2CCCC(CCC(=O)NCc3ccc(F)c(F)c3)C2)o1 (stereo unspecified)	-5%	.	-3.1	0.2	56µM*	7%[15.4 µM]	-1.5%
Cc1nn(CC(=O)N2CCN(c3ccccc3)CC2)c(=O)c2cccn12	11%	-0.4%&-1.3%	-2.9	-0.2	12%	-28%	0.8%&0.2%
CN1CCc2nc3ccc(Cl)cc3c(-c3ccccc3Cl)c2C1	4%	0.6%	-1.3	-2.5	-7%	-17%	0.6%
CC1CCN(C(=O)COc2cccc3c2CCN(C)C3=O)CC1	2%	.	-0.9	4.1	15%	0%[15.4 µM]	2.1%
O=S(=O)(c1ccc(N2CCOCC2)c(Cl)c1)N1CCOCC1	3%	.	-1.8	-1.1	13%	-31%[inhibitor]	2.6%
COC(=O)C1=CN(CC2CCCO2)C=C(C(=O)OC)C1c1ccccc1C(F)(F)F (stereo unspecified)	-13%	32µM*	6.3	-1.0	3%	3%	-0.3%
Cc1nn(CC(=O)N(C)Cc2ccc(F)cc2)c(C)c1[N+](=O)[O-]	-4%	2.8%	0.0	-1.5	-11%	-10%	0.8%
CC(C)=NOc1nc(NC(=O)NS(=O)(=O)c2ccccc2Cl)nc(N(C)C)n1	2%	.	.	-0.2	.	-1%[15.4 µM]	-0.2%
COc1cc(NC(=O)CN(C)C2CCCCC2)c(C)cc1[N+](=O)[O-]	-6%	-1.8%	1.2	-2.8	8%	-25%	0.3%
CCN(CC(=O)Nc1ccc2c(c1)OCCO2)C(=O)/C=C/c1cccc(C(F)(F)F)c1	-7%	-0.6%	.	1.8	.	-1%	2.3%
Cc1ccc(-c2csc3nc4cc(C(N)=O)ccc4c(=O)n23)cc1	-1%	4.4%	2.8	-0.7	79µM*	.	2.7%
CCCNC(=O)c1ccccc1SCc1c(C)noc1C	20%	-0.8%	.	-1.9	-11%	-6%	0.6%
CCOCCCNC(=O)c1c[nH]c2ccc(S(=O)(=O)Nc3cccc(OC)c3)cc2c1=O	0%	-6.1%	4.7	6.2	12%	-32%[inhibitor]	1.7%
O=S(=O)(NC(=NC1CCCCC1)c1ccccc1)c1ccc(F)cc1	-15%	0.9%	-2.1	-6.1	11%	-42%[inhibitor]	1.8%
Cc1nc2cc(C(=O)N3c4ccccc4CC3C)ccc2s1 (stereo unspecified)	9%	.	1.4	4.3	11%	11%[15.4 µM]	3.0%
Cc1nc(NCCCN2CCOCC2)c2oc3ccccc3c2n1	5%	-24%	-3.5	-1.9	15%	?	-1.1%
C/C=C/CSc1nc2c(c(=O)[nH]c(=O)n2C)n1Cc1ccc(C)cc1	17%	-0.1%	2.2	-2.9	?	-96%[inhibitor]	7.1%
Nc1c(-c2ccccc2)cnn1-c1cccc(C(F)(F)F)c1	-3%	-3.5%	-1.3	0.0	11%	-7%	2.6%
Cc1nc2ccccc2c2c1C(=O)N(c1ccc(C(=O)O)cc1)C2=O	-18%	.	-5.9	4.2	1%	13%	-1.9%
O=[N+]([O-])c1cccc(S(=O)(=O)Nc2ccc(S(=O)(=O)N3CCCC3)cc2)c1	-8%	-0.4%	.	-3.5	.	-25%	1.3%
O=C(Cc1c(F)cccc1Cl)Nc1ncc([N+](=O)[O-])s1	-13%	-0.8%	-3.3	1.4	-18%	-93%[inhibitor]	8.8%
COCCn1c(C(C)C)nc2ccccc21	-1%	0.4%	-1.6	-2.5	4%	16%	2.5%
COc1ccc(N2CSC3=C(C#N)C(c4cc(OC)ccc4OC)CC(=O)N3C2)c(OC)c1 (stereo unspecified)	-5%	-4.6%	12	?	3.2µM*	-37%[inhibitor]	0.0%
Cc1ccc(S(=O)(=O)Nc2nc3ccc(S(C)(=O)=O)cc3s2)cc1	0%	-1.5%	4.2	2.3	8%	12%	-0.5%[38.3 µM]

(next part)
SMILES	gsp antagonist	ClpP mod	Menin-MLL FL inh	D2 agonist	Sfp PPTase inh	gsp agonist	PINK1 modulator
Cc1cc(C)n(CCC(=O)N/N=C/c2ccc(O)cc2O)n1	8%	-2.1%	1.9	-2.6	15%	-9%[15.4 µM]	-2.8%
O=C(C[C@H]1C[C@H](C(=O)N2CCCCC2)[C@@]2(CCc3ccccc3)c3[nH]c4cc(-c5ccco5)ccc4c3CCN2C1=O)NCCC1=CCCCC1	-6%	4.2%	.	-5.1	.	.	1.3%
COc1cc(/C=C/C(=O)O)cc(S(=O)(=O)N2CCc3ccccc32)c1OC	-12%	.	1.3	1.4	-10%	-5%	1.7%
CCOC(=O)c1c(NC(=O)CSc2nnnn2-c2ccc3c(c2)OCO3)sc(C)c1C	-9%	-0.3%	0.6	-0.6	15%	-4%	14%[38.3 µM]
COc1ccc(N2CCN(Cc3nc4c(c(=O)n(C)c(=O)n4C)n3C(C)C(C)=O)CC2)cc1 (stereo unspecified)	-1%	-0.3%	0.8	0.3	5%	13%	0.4%[38.3 µM]
CCN(CC)S(=O)(=O)c1ccc(/C=C/C(=O)OCC(=O)NCc2ccco2)cc1	7%	0.7%	.	-0.2	.	-1%	2.0%
CCOC(=O)c1cccc(NC(=O)c2ccc3c(c2)OCO3)c1	-9%	-8.1%	0.4	1.2	2%	-13%[15.4 µM]	-0.5%
CC(=O)NS(=O)(=O)c1ccc(Nc2ccc([N+](=O)[O-])c3nonc23)cc1	1%	-1.5%	?	-13	6%	-36%[inhibitor]	4.0%
CCCCn1c(SCC(=O)N2CCOCC2)nnc1-c1ccoc1C	5%	-2.7%	3.0	-2.5	22%	-1%	4.2%

Assay outcomes deposited in PubChem by National Center for Advancing Translational Sciences (NCATS).
